CDC25B CDK2 inh: primary biochemical HTRF screen for blockers of M-phase inducer phosphatase 2 binding to CDK2/cyclin A; P30305+P24941; HTRF CDC25B-CDK2/CyclinA binding, anti-His/anti-Flag; hits give high values; z-score (test concentration not listed); 0.72% of 94,000 active; AID 1259370, 2018;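 note: score is relative to mean and SD of negative controls; strong numbers were not always called active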
TAR Tat displ: TAR RNA-Tat peptide displacers, HIV-1, primary screen, biochemical, FRET, FAM/TAMRA-labeled Tat; AID 1259389, 2018; z-score (test concentration not listed); HIV-1 TAR RNA, Tat peptide displacement FRET; hits give high values; 0.6% of 100,000 active;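 note: score is relative to mean and SD of negative controls; some compounds called inactive have numbers as strong as hits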
* hit, by the source's call; & = joins results of further samples.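 Rule for the calls: active = z-score from 3 up in half or more of its runs; inactive = the rest.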

For CN1C(C(=O)Nc2ccc(F)cc2F)=CC(c2ccco2)=NS1(=O)=O the results were CDC25B CDK2 inh -2.8 and TAR Tat displ -0.86.
CNCc1ccc2c(c1)n(C)c(=O)n2C was read as CDC25B CDK2 inh -0.43 and TAR Tat displ -0.04.
C=CCNc1nc(NCc2ccccc2C)c2cnn(C)c2n1 was read as TAR Tat displ 1.5.
`Cc1c(C)c(C)c(S(=O)(=O)NCCc2ccncc2)c(C)c1C` gave CDC25B CDK2 inh 1.1.
`COc1ccccc1-n1c(N)c(C(N)=O)sc1=S` gave CDC25B CDK2 inh 4.3 and TAR Tat displ -1.6.
`CNC(=O)C1CCC(Cn2c(=O)c3sccc3n(CC(=O)Nc3cc(F)ccc3F)c2=O)CC1` (stereo not drawn) gave TAR Tat displ -0.14.
COc1ccccc1N1CN(Cc2ccccc2)CNC1=S was read as CDC25B CDK2 inh -0.93.
`CCN1C(=O)C(O)(CC(=O)c2ccc(-c3ccccc3)cc2)c2ccccc21` (stereo not drawn) gave CDC25B CDK2 inh 0.52 and TAR Tat displ -0.91.
Screening CCN(CC)S(=O)(=O)c1ccc(C(=O)Nc2nnc(-c3ccccc3OC)o2)cc1 returned CDC25B CDK2 inh 0.39.
Clc1ccc(CNc2cc(-c3ccccc3)ncn2)cc1 was read as CDC25B CDK2 inh 0.78 and TAR Tat displ 1.1.
For COc1cc(C)c(C)cc1S(=O)(=O)N1CCOCC1 the results were CDC25B CDK2 inh -2.6 and TAR Tat displ 0.65.
`COc1nc(Nc2ccccc2)nc(OCC(F)(F)F)n1` gave CDC25B CDK2 inh 0.21.
Screening CN(C(=O)CSc1nc2ccccc2[nH]1)c1ccc(F)cc1 returned CDC25B CDK2 inh -0.39 and TAR Tat displ 1.
Screening O=C(CN1Cc2ccccc2C1=O)Nc1ccc(Br)cc1F returned TAR Tat displ -2.1.
Screening CCCCOC(=O)C1=C(C)N(C)C(=O)NC1c1ccccc1 (stereo not drawn) returned CDC25B CDK2 inh -1.7.
`CN1CCN(CCCNC(=O)Cn2ncc3c4ccccc4n(C)c3c2=O)CC1` gave CDC25B CDK2 inh -1.8 and TAR Tat displ -0.1.
For CC(C)(C)/C=C(\C#N)C(C)(C)C the results were CDC25B CDK2 inh -0.55.
For COc1ccc(-n2nnc(-c3nc(-c4ccc(F)cc4)no3)c2N)cc1Cl the results were TAR Tat displ 1.6.
`CCCNC(=O)C(CCS(C)(=O)=O)N1Cc2ccccc2C1=O` (stereo not drawn) gave TAR Tat displ -1.5.
For CCN(Cc1c(O)ccc2c3c(c(=O)oc12)CCC3)C1CCCCC1 the results were CDC25B CDK2 inh -0.39.

Of the compounds above, these have a Cl atom.
Clc1ccc(CNc2cc(-c3ccccc3)ncn2)cc1 was read as CDC25B CDK2 inh 0.78 and TAR Tat displ 1.1.
For COc1ccc(-n2nnc(-c3nc(-c4ccc(F)cc4)no3)c2N)cc1Cl the results were TAR Tat displ 1.6.

Remaining list, next part.
COc1ccc(CN2C(=O)c3cccnc3C2=O)cc1S(=O)(=O)NCc1cccs1 was read as TAR Tat displ 1.3.
Screening O=C1NC(=O)c2ccc(N3CCOCC3)c3cccc1c23 returned CDC25B CDK2 inh -1.2 and TAR Tat displ -0.16.
`COc1ccc(CCNc2ncnc3onc(-c4ccc(F)cc4)c23)c(OC)c1` gave TAR Tat displ -0.6.
COc1cccc(N2CCN(S(=O)(=O)c3ccc(-c4n[nH]c(C)c4C)s3)CC2)c1 was read as TAR Tat displ 1.6.
For O=C(NC1CCCCC1)c1ccc(CNc2c(NC3CCCC3)c(=O)c2=O)cc1 the results were CDC25B CDK2 inh 0.63 and TAR Tat displ 1.4.
CC(C)CN[C@H]1CS(=O)(=O)C[C@@H]1S(=O)(=O)c1ccccc1 was read as CDC25B CDK2 inh -0.91 and TAR Tat displ 0.86.
For Cc1cccn2c(=O)c3cc(C#N)c(=O)n(-c4ccccc4Cl)c3nc12 the results were CDC25B CDK2 inh -11 and TAR Tat displ 1.3.
COc1ccc(C2CC(=O)c3cc(-c4nc(-c5ccc6c(c5)OCO6)cs4)c(=O)[nH]c3C2)cc1 (stereo not drawn) was read as CDC25B CDK2 inh 1.3 and TAR Tat displ -3.8.
`CC(C)C1N=C2c3ccccc3N=C(SCc3cc(=O)n4cc(Cl)ccc4n3)N2C1=O` (stereo not drawn) gave CDC25B CDK2 inh -1.3.
`CCCS(=O)(=O)N1CCCN(c2nc3cc(Cl)ccc3n3cccc23)CC1` gave CDC25B CDK2 inh -1.5 and TAR Tat displ 1.1.
`O=C(CCc1nnc2ccc(NCc3ccc(F)cc3)nn12)Nc1ccc(Cl)cn1` gave TAR Tat displ 1.5.
For CC(=O)c1csc(Nc2ccc(Cl)cc2)n1 the results were CDC25B CDK2 inh -0.41.
`NS(=O)(=O)c1ccc(NC(=O)CSc2ncn(-c3ccccc3)n2)cc1` gave CDC25B CDK2 inh -0.92 and TAR Tat displ 0.67.
Screening O=C(NCc1ccc(F)cc1)c1nn2c(C(F)(F)F)cc(-c3ccco3)nc2c1Cl returned CDC25B CDK2 inh -2.3 and TAR Tat displ 2.
CCOC(=O)c1[nH]c(C)c(CN(Cc2ccco2)C(=O)c2ccc3c(c2)OCO3)c1C was read as TAR Tat displ -0.74.
Screening COc1ccc(-c2ccc(-c3noc(-c4ccc(OC)c(OC)c4)n3)c(OC)n2)cc1 returned CDC25B CDK2 inh 0.8 and TAR Tat displ -1.8.
O=C1Nc2ccccc2N=C(c2ccccc2)c2ccccc21 was read as CDC25B CDK2 inh -1.1.
For COC(=O)CCc1c(C)[nH]n(-c2nc(-c3ccc(F)cc3)cs2)c1=O the results were CDC25B CDK2 inh -4.4 and TAR Tat displ 1.1.
For Clc1cccc(Oc2ncnc3c2oc2ccccc23)c1 the results were CDC25B CDK2 inh -3.2 and TAR Tat displ -2.3.
O=C(Cn1c(=O)oc2ccccc21)Nc1nc(-c2ccc(Br)cc2)cs1 was read as CDC25B CDK2 inh -1.4 and TAR Tat displ 1.1.

Random excerpt: 6 entries already listed.
Screening O=C(NCc1ccc(F)cc1)c1nn2c(C(F)(F)F)cc(-c3ccco3)nc2c1Cl returned CDC25B CDK2 inh -2.3 and TAR Tat displ 2.
`CCCS(=O)(=O)N1CCCN(c2nc3cc(Cl)ccc3n3cccc23)CC1` gave CDC25B CDK2 inh -1.5 and TAR Tat displ 1.1.
`COc1nc(Nc2ccccc2)nc(OCC(F)(F)F)n1` gave CDC25B CDK2 inh 0.21.
`COc1ccc(CCNc2ncnc3onc(-c4ccc(F)cc4)c23)c(OC)c1` gave TAR Tat displ -0.6.
For COC(=O)CCc1c(C)[nH]n(-c2nc(-c3ccc(F)cc3)cs2)c1=O the results were CDC25B CDK2 inh -4.4 and TAR Tat displ 1.1.
C=CCNc1nc(NCc2ccccc2C)c2cnn(C)c2n1 was read as TAR Tat displ 1.5.

(more compounds)
Screening Cc1c(SCC(=O)Nc2ccc(Br)cc2)c(=O)[nH]c2cc3c(cc12)OCO3 returned CDC25B CDK2 inh -1.8 and TAR Tat displ -0.75.
Screening COc1ccc(-c2cc(N3CCN(S(=O)(=O)c4cccc5nsnc45)CC3)ncn2)cc1 returned TAR Tat displ 1.6.
For CC(C)NCC(O)COc1ccc(CC(N)=O)cc1 (stereo not drawn) the results were CDC25B CDK2 inh 0.59 and TAR Tat displ 0.77.
COc1cccc(NS(=O)(=O)c2ccc3c(c2)NC(=O)CCS3)c1 was read as TAR Tat displ 1.6.
`CS(=O)(=O)Nc1ccc(S(=O)(=O)Nc2ncccn2)cc1` gave CDC25B CDK2 inh -0.72 and TAR Tat displ 2.9.
`CCCCCC(=O)Nc1c(Cl)ccc2nsnc12` gave CDC25B CDK2 inh -1.2 and TAR Tat displ 0.11.
Screening CCS(=O)(=O)c1ccc(-c2cccc(NS(=O)(=O)c3cc(C)ccc3OC)c2)nn1 returned TAR Tat displ 0.32.
NCc1ccc(C(=O)NN)cc1 was read as CDC25B CDK2 inh -1.5.
Screening CCN1CCN(CCN=C2NS(=O)(=O)C(c3ccc(F)cc3)=C2C)CC1 returned TAR Tat displ 0.51.
CCOc1ccc(C2=C(CN(C)C)C(c3ccc(F)cc3)c3ccccc3O2)cc1 (stereo not drawn) was read as CDC25B CDK2 inh -0.76.
For Cc1ccc2onc(CNC(=O)Nc3nc(C)cs3)c2c1 the results were TAR Tat displ 0.38.
CC1=C(c2ccc(C)cc2)S(=O)(=O)NC1=NCc1ccccc1F was read as CDC25B CDK2 inh -1.2 and TAR Tat displ 0.27.
Cc1ncc(COP(=O)(O)O)c(C=Nc2ccc3ccccc3c2)c1O was read as CDC25B CDK2 inh 14*.
Screening O=C(NC1CCS(=O)(=O)C1)c1ccc(N2CCOc3ccc(Cl)cc32)s1 (stereo not drawn) returned CDC25B CDK2 inh -4.2 and TAR Tat displ 0.16.
For O=C(Cn1cnc2c(nnn2Cc2ccccc2F)c1=O)N1CCCC1 the results were CDC25B CDK2 inh -1.5.
For C=CCn1c(SCC(=O)N2CCN(c3ccccc3)CC2)nnc1-c1cc2ccccc2o1 the results were TAR Tat displ 0.36.
Screening O=C(CSc1nnc(CNC(=O)c2ccco2)n1-c1ccccc1)Nc1nccs1 returned CDC25B CDK2 inh -0.86 and TAR Tat displ 0.92.
CCCS(=O)(=O)N1CCCc2ccc(NS(=O)(=O)c3cc(Cl)ccc3OC)cc21 was read as TAR Tat displ 0.49.
CCc1nnc2n1NC(c1ccc(C)cc1)C(C(=O)Nc1ccc(C)cc1C)S2 (stereo not drawn) was read as CDC25B CDK2 inh -0.65 and TAR Tat displ 0.18.
Cc1nn(C(=O)CCC(=O)NC2CCCc3ccccc32)c2ccccc12 (stereo not drawn) was read as CDC25B CDK2 inh -3.5 and TAR Tat displ 0.94.

Brought forward from above: 3 entries; new compounds follow.
CCCS(=O)(=O)N1CCCc2ccc(NS(=O)(=O)c3cc(Cl)ccc3OC)cc21 was read as TAR Tat displ 0.49.
CCc1nnc2n1NC(c1ccc(C)cc1)C(C(=O)Nc1ccc(C)cc1C)S2 (stereo not drawn) was read as CDC25B CDK2 inh -0.65 and TAR Tat displ 0.18.
Cc1nn(C(=O)CCC(=O)NC2CCCc3ccccc32)c2ccccc12 (stereo not drawn) was read as CDC25B CDK2 inh -3.5 and TAR Tat displ 0.94.
Screening CCCn1c2ccccc2c2cnn(CC(=O)N3CCN(C(=O)c4ccco4)CC3)c(=O)c21 returned TAR Tat displ -1.1.
O=C(c1ccccc1)c1oc2ccccc2c1NC(=O)c1nn(-c2ccc(F)cc2)ccc1=O was read as CDC25B CDK2 inh 1.7 and TAR Tat displ 0.32.
`N#CC(C(=O)Nc1cccc(C(F)(F)F)c1)C(=S)Nc1ccccc1Cl` (stereo not drawn) gave CDC25B CDK2 inh -0.83.
Screening Cc1ccc(CNC(=O)C(C)n2nc(C)n3c(cc4sccc43)c2=O)cc1 (stereo not drawn) returned CDC25B CDK2 inh -0.51 and TAR Tat displ 1.4.
For CCc1nnc(NC(=O)c2cc(=O)c3cc(Cl)ccc3o2)s1 the results were CDC25B CDK2 inh -1.3 and TAR Tat displ -2.
Screening COc1ccc(-c2c(C)n([O-])c(C)c(C)[n+]2=O)cc1 returned CDC25B CDK2 inh -2.4.
Screening COc1ccc(OC)c(C(=O)CSc2nccn(-c3cc(C)cc(C)c3)c2=O)c1 returned TAR Tat displ 0.95.
NC(=O)NNc1ccccc1 was read as CDC25B CDK2 inh -1.2.
Screening CC(C)(C)NC(=O)C1CCC(CNc2c(N3CCCCC3)c(=O)c2=O)CC1 (stereo not drawn) returned CDC25B CDK2 inh -1.5 and TAR Tat displ 2.
`CCOC(=O)c1c(NC(=O)c2cc(CC)on2)sc2c1CCCC2` gave CDC25B CDK2 inh -1 and TAR Tat displ 0.83.
Cc1nn(C(=O)C2CC2)c(C)c1S(=O)(=O)N1CCc2ccccc2C1 was read as TAR Tat displ 0.66.
CCOc1ccc(-c2noc(CSc3nnc(-c4ccc(Cl)cc4)n3C)n2)cc1 was read as CDC25B CDK2 inh -1.8 and TAR Tat displ -1.1.
Screening CCOC(=O)c1c(S(=O)(=O)N2CCCC(C(=O)N3CCCCC3)C2)c(C)n(C)c1C (stereo not drawn) returned TAR Tat displ 2.2.
For Cc1nn(C)c(C)c1CNC(=O)c1nn2c(c1Cl)NC(c1cccs1)CC2C(F)(F)F (stereo not drawn) the results were CDC25B CDK2 inh -0.21 and TAR Tat displ 1.6.
Screening CC(C)CC(=O)Nc1nn2c(-c3cccs3)nnc2s1 returned CDC25B CDK2 inh -1.8 and TAR Tat displ 1.5.
`O=C(COCc1cc(-c2cccs2)on1)Nc1ccc(F)c(Cl)c1` gave TAR Tat displ 0.68.
For CCOC(=O)C1=C(C)N=C2SC(C)C(=O)N2C1c1ccc(F)cc1 (stereo not drawn) the results were CDC25B CDK2 inh 0.08 and TAR Tat displ 1.1.
For Cc1ccc(C(=O)Nc2ccc(S(=O)(=O)O)c3cc(S(=O)(=O)O)cc(S(=O)(=O)O)c23)cc1NC(=O)c1cccc(NC(=O)Nc2cccc(C(=O)Nc3cc(C(=O)Nc4ccc(S(=O)(=O)O)c5cc(S(=O)(=O)O)cc(S(=O)(=O)O)c45)ccc3C)c2)c1 the results were CDC25B CDK2 inh 4.7* and TAR Tat displ -11&0.16.
For CNC(=O)Nc1cc(C)nn1C(C)(C)C the results were CDC25B CDK2 inh -1.4.
COc1ccc(S(=O)(=O)Nc2cc(-c3cn4ccc(C)cc4n3)ccc2C)cc1 was read as CDC25B CDK2 inh 0.53 and TAR Tat displ 0.45.
Screening COc1ccc(Cc2nc3ccccc3n2C)cc1 returned CDC25B CDK2 inh -0.59 and TAR Tat displ 3.6.
CCN1CCC[C@H]1CNC(=O)c1c(O)c(Cl)cc(Cl)c1OC was read as CDC25B CDK2 inh -1.5 and TAR Tat displ -2.1.
For COc1ccc(C2c3c(-c4c(C)cc(C)cc4O)n[nH]c3C(=O)N2Cc2ccco2)cc1OC (stereo not drawn) the results were CDC25B CDK2 inh -3.9 and TAR Tat displ 0.15.
